Compound activity deposited in PubChem BioAssay by Broad Institute.
DUX4 txn inh: blocks DUX4-driven transcriptional activation. 293T-iDUX4 ZSCAN4-Gaussia luciferase reporter, 24 h; hits give low values. activity change, negative = inhibition, % (concentration not given with the values). actives 0.8% (n = 37,000);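 active = -10% or lower and over 25 points stronger than a control reporter; inconclusive = -10% or lower with a smaller gap; inactive = above -10%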;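 note: 0% = median of neutral control wells and -100% = median of positive control wells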
DUX4 txn inh difference: further read-out of DUX4 txn inh, marked with its call; Gaussia minus Italica difference, %; measured here: selective DUX4 reporter inhibition;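 worked out from the two reporters; negative = selective loss of the DUX4 reporter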
DUX4 txn inh control: further read-out of DUX4 txn inh, marked with its call; activity change, negative = inhibition, %; measured here: Italica tet-on control reporter;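 0 = neutral control and -100 = positive control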
Active calls of the source: *; ? = inconclusive; nt = no result given. A portion of the library; the hit share may differ from the screen's.

SMILES | DUX4 txn inh | DUX4 txn inh difference | DUX4 txn inh control
COC(=O)C[C@H]1C[C@H]2c3cc(NC(=O)Nc4ccccc4)ccc3O[C@H]2[C@@H](CO)O1 | 2 | -4 | 6.6
O=C(c1cccc(F)c1)N1CC2(C1)[C@@H](c1ccccc1)[C@H](CO)N2Cc1ccccn1 | -4 | -9 | 4.5
COc1ccc(CN2C[C@@H](C)[C@@H](OC)CN(C)C(=O)c3cc(NC(=O)c4nc5ccccc5s4)ccc3OC[C@@H]2C)cc1 | ? | nt | nt
COc1cccc(-c2ccc3n(c2=O)C[C@H]2[C@H](CO)[C@@H](C(=O)NC4CCC4)N(S(C)(=O)=O)[C@@H]32)c1 | 5 | -4 | 8.7
Cn1cnc(S(=O)(=O)N2CC[C@H]3[C@H](CO)Nc4ccc(C#Cc5ccc(F)cc5)cc4[C@H]32)c1 | -1 | 18 | -19
CCS(=O)(=O)N1CCCCN2[C@H](CO)[C@H](c3ccc(C#CC(C)(C)O)cc3)[C@H]2C1 | 15 | -1 | 16
O=C(Nc1ccc(F)cc1)Nc1ccc2c(c1)[C@H]1C[C@@H](CC(=O)N3CCOCC3)O[C@H](CO)[C@H]1O2 | 9 | 4 | 5.7
O=C(C[C@@H]1CC[C@H]2[C@@H](COC[C@@H](O)CN2C(=O)c2cccnc2)O1)NC1Cc2ccccc2C1 | 8 | 9 | -0.7
C[C@@H]1CN([C@@H](C)CO)C(=O)Cc2cc(NC(=O)CCN3CCOCC3)ccc2O[C@@H]1CN(C)Cc1ccc(C(=O)O)cc1 | -2 | -2 | 0.2
OC[C@@H]1[C@@H](c2ccccc2)C2(CN(Cc3nccs3)C2)N1Cc1ccccc1 | ? | nt | nt
COc1ccc(C#Cc2ccc3c(c2)[C@@H]2[C@@H](CCN2C(=O)C2CCCCC2)[C@H](CO)N3)cc1 | 1 | -11 | 12
C[C@H](CO)N1C[C@H](C)[C@H](CN(C)C(=O)NC2CCCC2)Oc2ncc(C3=CCCC3)cc2C1=O | -1 | 1 | -1.6
C[C@@H]1CN([C@@H](C)CO)C(=O)c2cc(NC(=O)Nc3cccc4ccccc34)ccc2O[C@@H]1CN(C)Cc1ccc(Cl)c(Cl)c1 | -2 | -1 | -1.1
CN(C)CC(=O)N[C@H]1CC[C@@H](CCNS(=O)(=O)c2ccccc2)O[C@H]1CO | 0 | 2 | -2.2
O=C(C[C@@H]1C[C@@H]2c3cc(NS(=O)(=O)c4ccc(F)cc4)ccc3O[C@@H]2[C@H](CO)O1)NC1CCCCC1 | -1 | 7 | -8.0
C[C@@H]1CN([C@H](C)CO)C(=O)c2cccc(NS(C)(=O)=O)c2O[C@@H]1CN(C)Cc1ccc(-c2ccccc2)cc1 | -3 | -1 | -2.1
C[C@@H]1CN([C@@H](C)CO)C(=O)c2ccccc2-c2ccccc2CO[C@@H]1CN(C)Cc1ccc2c(c1)OCO2 | ? | nt | nt
CCCC#Cc1cnc2c(c1)C(=O)N([C@@H](C)CO)C[C@@H](C)[C@@H](CN(C)C(=O)C1CCC1)O2 | -4 | -3 | -0.4
COc1ccc2c3c(n(C)c2c1)[C@H](CO)N(S(C)(=O)=O)CC31CN(C(=O)C2CC2)C1 | 11 | 16 | -5.0
COc1ccc2c3c(n(C)c2c1)[C@@H](CO)N(S(C)(=O)=O)CC31CCN(Cc2cncnc2)CC1 | 13 | 14 | -1.9
C[C@H](CO)N1C[C@H](C)[C@@H](CN(C)S(=O)(=O)c2ccccc2)OCCCC[C@H](C)Oc2ccc(NS(C)(=O)=O)cc2C1=O | 4 | -1 | 4.5
N#C[C@@H]1[C@H](c2ccc(-c3cccnc3)cc2)[C@H](CO)N1C(=O)C1CCC1 | -8 | 2 | -10
CO[C@H](CN(C)C(=O)C1CCOCC1)[C@@H](C)CN(C(=O)Nc1ccc(C(F)(F)F)cc1)[C@@H](C)CO | 3 | 1 | 1.2
COc1cccc(S(=O)(=O)Nc2ccc3c(c2)[C@@H]2C[C@@H](CC(=O)NCc4ccc(Cl)cc4)O[C@H](CO)[C@@H]2O3)c1 | ? | nt | nt
O=C(Cc1ccccn1)N[C@@H]1CC[C@@H](CCNS(=O)(=O)c2cccc(F)c2)O[C@H]1CO | 3 | -6 | 9.1
COc1cccc(C#Cc2ccc3c(c2)[C@H]2[C@H](CCN2C(=O)Cc2ccccc2)[C@@H](CO)N3C)c1 | ? | nt | nt
O=C(Nc1ccc(F)cc1)N1CC(=O)N2[C@H](CO)[C@@H](c3ccc(C#Cc4ccccc4)cc3)[C@@H]2C1 | ? | nt | nt
O=C(Nc1ccccc1F)N1C[C@@H]2[C@H](c3ccccc31)[C@H](CO)N2C(=O)Cc1cccnc1 | 1 | 2 | -0.8
O=C(Nc1cccc(F)c1)N1C[C@@H]2[C@H](c3ccccc31)[C@H](CO)N2C(=O)C1CCOCC1 | 0 | 6 | -6.2
C[C@H]1CN([C@@H](C)CO)C(=O)c2ccccc2-c2ccccc2CO[C@H]1CN(C)C(=O)[C@H](Cc1ccccc1)N(C)C | -2 | -12 | 10
O=C(C[C@@H]1CC[C@@H]2[C@H](COC[C@@H](O)CN2C(=O)c2ccccc2F)O1)NCc1ccc(-c2ccccc2)cc1 | ? | nt | nt
COc1cccc(-c2ccc3c(c2)[C@H]2[C@H](CCN2C(=O)c2ccccn2)[C@H](CO)N3)c1 | -7 | -7 | -0.3
CN(C)CC(=O)N1[C@@H](C#N)[C@H](c2ccc(C#CC3CCCC3)cc2)[C@@H]1CO | 0 | 0 | -0.1
O=C(C[C@H]1CC[C@@H]2[C@H](COC[C@@H](O)CN2Cc2ccc(Oc3ccccc3)cc2)O1)Nc1nccs1 | ? | nt | nt
CCCNC(=O)N1C[C@@H](O)COC[C@@H]2O[C@@H](CC(=O)N[C@@H]3CCN(Cc4ccccc4)C3)CC[C@H]21 | 10 | 7 | 3.0
CC(C)C#Cc1ccc([C@H]2[C@@H](CO)N3C(=O)CN(C(=O)c4ccc5c(c4)OCO5)C[C@@H]23)cc1 | 1 | -4 | 5.1
CN(C)CC(=O)N1[C@H](CO)[C@H](c2ccc(C#CC3CCCC3)cc2)[C@@H]1C#N | -1 | -3 | 2.2
COC(=O)C[C@@H]1CC[C@H]2[C@@H](COc3ccc(NS(=O)(=O)c4ccccc4F)cc3C(=O)N2C)O1 | 0 | -3 | 2.6
O=C(c1ccc2c(c1)OCO2)N1CC2(C1)[C@H](c1ccccc1)[C@H](CO)N2C(=O)C1CC1 | -4 | 4 | -7.9
CC(C)NC(=O)N1CCCCN2[C@@H](CO)[C@H](c3ccc(C#Cc4ccccc4)cc3)[C@@H]2C1 | ? | nt | nt

Sorted by count of non-hydrogen atoms (highest first): part of the list above
SMILES | DUX4 txn inh | DUX4 txn inh difference | DUX4 txn inh control
C[C@@H]1CN([C@@H](C)CO)C(=O)Cc2cc(NC(=O)CCN3CCOCC3)ccc2O[C@@H]1CN(C)Cc1ccc(C(=O)O)cc1 | -2 | -2 | 0.2
C[C@H](CO)N1C[C@H](C)[C@@H](CN(C)S(=O)(=O)c2ccccc2)OCCCC[C@H](C)Oc2ccc(NS(C)(=O)=O)cc2C1=O | 4 | -1 | 4.5
CO[C@H](CN(C)C(=O)C1CCOCC1)[C@@H](C)CN(C(=O)Nc1ccc(C(F)(F)F)cc1)[C@@H](C)CO | 3 | 1 | 1.2
O=C(Nc1ccccc1F)N1C[C@@H]2[C@H](c3ccccc31)[C@H](CO)N2C(=O)Cc1cccnc1 | 1 | 2 | -0.8
CC(C)NC(=O)N1CCCCN2[C@@H](CO)[C@H](c3ccc(C#Cc4ccccc4)cc3)[C@@H]2C1 | ? | nt | nt
O=C(c1ccc2c(c1)OCO2)N1CC2(C1)[C@H](c1ccccc1)[C@H](CO)N2C(=O)C1CC1 | -4 | 4 | -7.9
COc1ccc2c3c(n(C)c2c1)[C@H](CO)N(S(C)(=O)=O)CC31CN(C(=O)C2CC2)C1 | 11 | 16 | -5.0
CN(C)CC(=O)N1[C@H](CO)[C@H](c2ccc(C#CC3CCCC3)cc2)[C@@H]1C#N | -1 | -3 | 2.2
N#C[C@@H]1[C@H](c2ccc(-c3cccnc3)cc2)[C@H](CO)N1C(=O)C1CCC1 | -8 | 2 | -10

Later entries.
SMILES | DUX4 txn inh | DUX4 txn inh difference | DUX4 txn inh control
O=C(C[C@H]1C[C@H]2c3cc(NS(=O)(=O)c4ccc(F)cc4)ccc3O[C@H]2[C@H](CO)O1)NCCc1ccccc1 | ? | nt | nt
CCCC#Cc1ccc([C@@H]2[C@@H](CO)N3C(=O)CN(C(=O)c4cccnc4)C[C@H]23)cc1 | 12 | 6 | 5.7
O=C(C[C@@H]1CC[C@H]2[C@@H](COC[C@H](O)CN2Cc2cc(F)ccc2F)O1)NCc1ccc(Oc2ccccc2)cc1 | ? | nt | nt
C[C@H](NC(=O)N(C)C[C@@H]1OCc2ccccc2-c2c(n(C)c3ccccc23)C(=O)N([C@@H](C)CO)C[C@H]1C)c1ccccc1 | 1 | 1 | -0.1
C[C@@H]1CCCCO[C@H](CN(C)C(=O)Nc2ccc(C(F)(F)F)cc2)[C@@H](C)CN([C@H](C)CO)C(=O)c2cc(N(C)C)ccc2O1 | 3 | -3 | 5.7
O=C(Cc1ccccc1)N1CC(=O)N2[C@H](C1)[C@@H](c1ccc(C#CCc3ccccc3)cc1)[C@@H]2CO | -34* | -28* | -5.9*
C[C@@H]1CN([C@H](C)CO)C(=O)c2c(c3ccccc3n2C)-c2ccccc2CO[C@@H]1CN(C)C(=O)Nc1cccc(C(F)(F)F)c1 | ? | nt | nt
CC=Cc1ccc2n(c1=O)C[C@H]1[C@H](CO)[C@@H](C(=O)N[C@@H](C)c3ccccc3)[C@@H]2N1Cc1ccncc1 (mixture of isomers) | 4 | -2 | 5.7
C[C@H]1CN([C@@H](C)CO)S(=O)(=O)c2ccc(C3=CCCCC3)cc2O[C@H]1CN(C)Cc1ccccc1F | -3 | -3 | -0.5
CC(C)CC#Cc1ccc([C@H]2[C@H](CO)N3C(=O)CN(C(=O)Cc4ccccc4)C[C@@H]23)cc1 | -4 | -3 | -1.2
CC(C)NC(=O)N(C)C[C@H]1Oc2cc(-c3ccccc3)ccc2S(=O)(=O)N([C@@H](C)CO)C[C@H]1C | 0 | -1 | 1.3
C[C@@H]1CCCCO[C@@H](CN(C)C(=O)Cc2ccccc2)[C@@H](C)CN([C@H](C)CO)C(=O)c2cc(N(C)C)ccc2O1 | 4 | 14 | -10.0
Cc1noc(C)c1NC(=O)N(C)C[C@@H]1OCCCC[C@@H](C)Oc2ccc(NC(=O)c3ccncc3)cc2C(=O)N([C@@H](C)CO)C[C@H]1C | 0 | -3 | 3.1
COc1ccc2c3c(n(C)c2c1)[C@H](CO)N(C)CC31CN(C(=O)c2ccc3c(c2)OCO3)C1 | 4 | 5 | -1.1
CN(C)C(=O)C[C@H]1CC[C@@H]2[C@H](COc3ccc(NC(=O)Nc4cccc(Cl)c4)cc3C(=O)N2C)O1 | -7 | -7 | -0.3
CCC(=O)N1[C@@H](CO)[C@@H](c2ccc(-c3ccc(C#N)cc3)cc2)C12CN(C(C)=O)C2 | 4 | 5 | -1.7
Cc1ccccc1-c1ccc([C@H]2[C@H](CO)N3C(=O)CN(C(=O)NC4CCCC4)C[C@@H]23)cc1 | 3 | 6 | -3.2
C[C@H](NC(=O)C[C@@H]1C[C@H]2c3cc(NS(C)(=O)=O)ccc3O[C@H]2[C@H](CO)O1)c1ccccc1 | 12 | 17 | -4.9
O=C(C[C@@H]1CC[C@@H]2[C@H](COC[C@@H](O)CN2C(=O)Cc2ccccc2)O1)NC1Cc2ccccc2C1 | 1 | 2 | -0.8
COc1cccc(C#Cc2ccc3c(c2)O[C@H](CN(C)C(=O)CN2CCOCC2)[C@@H](C)CN([C@@H](C)CO)S3(=O)=O)c1 | -5 | -4 | -0.3
CC(C)CC#Cc1ccc([C@H]2[C@@H](CO)N3CCCCN(C(=O)NC4CCCC4)C[C@@H]23)cc1 | -10 | -2 | -7.8
COC(=O)C[C@H]1CC[C@@H]2[C@@H](COc3ccc(NC(=O)Nc4cccc(C#N)c4)cc3C(=O)N2C)O1 | 0 | 0 | 0.6
C[C@@H]1CN([C@H](C)CO)C(=O)Cc2cc(NS(C)(=O)=O)ccc2O[C@H]1CN(C)S(=O)(=O)c1cccs1 | -3 | -1 | -1.9
COCC(=O)N1CC(=O)N2[C@H](CO)[C@H](c3ccc(C#CC4CC4)cc3)[C@H]2C1 | 8 | 1 | 6.6
CCCC#Cc1ccc([C@H]2[C@@H](C#N)N(C(=O)C3CCCC3)[C@@H]2CO)cc1 | -2 | -3 | 1.4
CO[C@@H]1CC[C@@H]2CCN(C)C(=O)[C@@H](C)CN(C)C(=O)c3cccc(C#N)c3OC[C@@H]1O2 | 3 | 5 | -1.9
CN(C)C(=O)c1ccc(-c2ccc([C@@H]3[C@@H](C#N)N(C(=O)Nc4ccccc4F)[C@H]3CO)cc2)cc1 | 0 | -2 | 1.5
COc1ccc2c3c(n(C)c2c1)[C@H](CO)N(C(=O)CN(C)C)CC31CN(C(=O)NC(C)C)C1 | 16 | 16 | 0.0
CO[C@@H]1CC[C@@H]2CCOc3ccc(C#N)cc3C(=O)N(C)CCCC(=O)N(C)C[C@@H]1O2 | -3 | -4 | 1.5
O=C(Nc1cccc(F)c1)N1CC(=O)N2[C@H](C1)[C@@H](c1ccc(Br)cc1)[C@@H]2CO | 2 | 3 | -1.2
CC(=O)N1CC(=O)N2[C@H](CO)[C@H](c3ccc(C#Cc4cccnc4)cc3)[C@@H]2C1 | -11* | -27* | 16*
COC(=O)C[C@@H]1C[C@@H]2c3cc(N(C)C)ccc3O[C@@H]2[C@@H](CO)O1 | 3 | -1 | 4.5
CN1CCN(C(=O)C[C@@H]2CC[C@H]3[C@@H](COC[C@H](O)CN3C(=O)c3ccccc3F)O2)CC1 | 8 | -4 | 11
CC(=O)N1[C@@H]2Cn3c(cccc3=O)[C@H]1[C@@H](C(=O)NCc1ccc(F)cc1)[C@@H]2CO | 1 | -8 | 8.3
